V. cholerae QS – Vibrio cholerae quorum sensing activators, luminescence (AID 686977); V. cholerae quorum sensing reporter, luminescence, 6 h; higher luminescence means a stronger effect; most inactives read 0; luminescence at 50 µM unless noted, or EC50 in µM where a hit was titrated; 9,400 tested, under 10 active;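 active = light above mean plus 3 SD and confirmed in a dose series; inconclusive = above that limit without a clear retest; inactive = below it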;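 also: raw light counts without normalisation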
An asterisk follows results filed as active; ? = inconclusive; [ ] = another dose, or the depositor's remark. A portion of the library. The share of hits here may be higher or lower than overall.

SMILES	V. cholerae QS
COc1ccc(-c2nc(SCC(=O)N3CCOCC3)n[nH]2)cc1	0
COC(=O)C1CCN(S(=O)(=O)c2c(C)n(C)c(=O)n(C)c2=O)CC1	0
COC(=O)c1cc(C(=O)Nc2ccc(C)cn2)cc([N+](=O)[O-])c1	0
CCn1ncc(C2=NOC(C(=O)Nc3cnn(C45CC6CC(CC(C6)C4)C5)c3)C2)c1C (stereo unspecified)	0
CC(c1ccccc1)N1CCn2c(nc3cc(NC(=O)c4cccs4)ccc32)C1 (stereo unspecified)	0
O=C(/C=C/c1c(Cl)cccc1Cl)N1CCN(c2ncccn2)CC1	0
CC(C)N=C(N)/N=C(\N)Nc1ccc(Cl)cc1	40[10 µg/mL]
CC(=O)N1CCN(c2ccc([N+](=O)[O-])c(NCC3CCCO3)c2)CC1 (stereo unspecified)	0
CCOC(=O)N1CCC(NC(=O)c2cc(C(=O)NC3CCCC3)ccc2CO)CC1	0
COC(=O)c1ccc(N2C(=O)CC(NCc3ccccc3)C2=O)cc1 (stereo unspecified)	0
CN(C)S(=O)(=O)c1ccc(C(=O)OCCCN=C2NS(=O)(=O)c3ccccc32)cc1	40
CC(=O)Nc1cccc(C(=O)Nc2ccccc2C(=O)O)c1	40
CCCOC(=O)CC1C(=O)NCCN1Cc1ccc(F)cc1 (stereo unspecified)	40
CC[N+](CC)(CC)CCCOC(=O)C(O)(c1ccccc1)C1CCCCC1 (stereo unspecified)	0
NC(=O)C1CCN(C(=O)C2CCN(S(=O)(=O)c3ccccc3)CC2)CC1	0
CSc1nc2ccc(Nc3nc(N4CCOCC4)nc(N4CCOCC4)n3)cc2s1	40
C/C(CCc1ccc2c(c1)OCO2)=N\N=C(/N)SC1CC(=O)N(c2ccccc2F)C1=O (stereo unspecified)	40
CC(C)NCC(O)c1cc(O)cc(O)c1 (stereo unspecified)	0[10 µg/mL]
CSc1cc(-c2ccc(Cl)cc2)n(Cc2ccccc2)c(=O)c1C#N	40
O=C1CC[C@@]2(O)[C@H]3Cc4ccc(O)c5c4[C@@]2(CCN3CC2CC2)[C@H]1O5	40[10 µg/mL]
Cc1ccc(-c2cc(C(F)(F)F)n3ncc(C(=O)NCc4ccco4)c3n2)cc1	0
O=C(NC1CCCCCCC1)C1CCCN(S(=O)(=O)c2cnc[nH]2)C1 (stereo unspecified)	?
Cc1cc(NC(=O)c2ccc3nc(C)sc3c2)no1	0
CCCCNc1c(C(=O)OCC)c(C)nc2c1cnn2CC	40[10 µg/mL]
Cc1cccc(N=C2NC(=O)/C(=C3/C(=O)N(C)c4ccccc43)S2)c1C	0

Remaining list, next part:
SMILES	V. cholerae QS
Cc1nnc(C)c2c(C)n(-c3ccc(Br)cc3)c(C)c12	0
CCn1c(=S)[nH]c2cc(C(=O)OC)ccc2c1=O	40
Cc1ccc(C)c(N/C(N)=N/c2nc(C)cc(C)n2)c1	0
CCC1(CC)C(=O)N(C)C(=O)NC1=NCc1ccccc1	0
Cc1cccc(S(=O)(=O)C(C#N)c2nc3ccccc3nc2N2CCOCC2)c1 (stereo unspecified)	40
Cc1ccnc(NS(=O)(=O)c2ccc(NC(=O)C3CCCCC3)cc2)n1	40
CCOC(=O)c1ccc(NC(=O)CCc2ccc(CC)o2)cc1	0
CN1CCN(CCCN2c3ccccc3Sc3ccc(C(F)(F)F)cc32)CC1	0[10 µg/mL]
CCOC(=O)c1cnc(SCC(=O)Nc2sc(C)c(C)c2C#N)nc1N	40
CC(C)C(C)(C#N)NC(=O)CSc1nnc(-c2ccncc2)n1Cc1ccccc1 (stereo unspecified)	0
OC[C@H]1O[C@@H](Oc2ccc(O)cc2)[C@H](O)[C@@H](O)[C@@H]1O	0[10 µg/mL]
CCCN(CCC)c1nc2ccccc2n2c(C)nnc12	0
CC(=O)c1c(C)[nH]c(C(=O)N2CCN(c3ncccn3)CC2)c1C	0
COC(=O)c1ccc2c(c1)N(Cc1nc(-c3cccc(C)c3)oc1C)C(=O)C1CCCN21 (stereo unspecified)	0
CCC(CC)NC(=O)c1ccc2c(c1)OCCO2	40
CC(=O)c1c(C(C)=O)c(C)n(-c2nc(-c3ccc(C)c(C)c3)c(C)s2)c1C	0
O=C(Cc1cn2ccsc2n1)Nc1nc2c(s1)CCCC2	0
CCN1C(=O)c2ccccc2S(=O)c2ccc(C(=O)N3CCCCCC3)cc21 (stereo unspecified)	0
CCCn1c2ccccc2c2cc(C(=O)O)ccc21	0
O=C(/C=C/C=C/c1ccc2c(c1)OCO2)N1CCCCC1	40[10 µg/mL]
COc1ccc(-c2cc(=O)oc3cc4occ(C)c4cc23)cc1	?
NC(N)=NCc1cccc(I)c1	280[10 µg/mL]
COc1ccccc1CNC(=O)C[n+]1ccccc1	0
CCCN1C(=O)c2ccc(C(=O)Nc3cc(C)on3)cc2C1=O	0
c1ccc2c(c1)CCCC2C1=NCCN1 (stereo unspecified)	0[10 µg/mL]

Some of the entries so far, in CSV form.
smiles,V. cholerae QS
CN1CCN(CCCN2c3ccccc3Sc3ccc(C(F)(F)F)cc32)CC1,0[10 µg/mL]
CCOC(=O)c1cnc(SCC(=O)Nc2sc(C)c(C)c2C#N)nc1N,40

Other results:
SMILES	V. cholerae QS
CCCC12CN3CC(C)(CN(C1)C31CCCCC1)C2=O	0
CCCc1cc(-c2n[nH]c(=S)n2C(C)c2ccccc2)cs1 (stereo unspecified)	?
COc1ccn(C)c(=O)c1C#N	0[10 µg/mL]
O=C(NCCCc1ccccc1)c1ccncc1	40
Cn1cc(S(=O)(=O)N2CCN(C(=O)c3ccco3)CC2)c(=O)n(C)c1=O	0
Cc1occc1-c1nnc(SCC(=O)N2CCCc3ccccc32)n1Cc1ccco1	40
CC(=O)Nc1ccc(S(=O)(=O)NCc2ccc(C)cc2)cc1	0
CC(=O)Nn1cnc2c(c1=O)C1(CCCCC1)Cc1ccccc1-2	40
CC(=O)Nc1ccccc1C(=O)C(=O)Nc1ccc(F)cc1	0
COc1ccc2[nH]cc(CCNC(C)=O)c2c1	0[10 µg/mL]
O=C(N/N=C/c1ccncc1)c1ccccc1	0
Cc1cc(C(N)=O)c2cc(Br)ccc2n1	0
CC1CCCN(CC(O)COc2ccc(Cl)cc2)C1 (stereo unspecified)	0
Cc1cccc(NCc2ccccc2O)c1C	0
c1csc(Cc2nc3ccccc3[nH]2)c1	0
C#C[C@]1(O)CC[C@H]2[C@@H]3CCC4=CC(=O)CC[C@]4(C)[C@H]3CC[C@@]21C	0[10 µg/mL]
Cn1c(SCc2nc(-c3ccc(Cl)cc3)no2)nnc1-c1ccco1	0
Cc1nnc(NC(=O)C(C)Sc2nncn2C)s1 (stereo unspecified)	0
Cc1c(C(=O)OCC(C)C)[nH]c2c1C(=O)CC(c1ccco1)C2 (stereo unspecified)	0
CCOCc1nc(C)c(Cl)c(NS(=O)(=O)c2ccc(N)cc2)n1	0
Nc1cc(-c2ccc(Br)cc2)nn1S(=O)(=O)c1ccccc1	0
CCNC1(c2cccs2)CCCCC1=O (stereo unspecified)	40[10 µg/mL]
COCc1[nH][nH]c(=O)c1C=Nc1ccccc1	0
CCCCCn1c(CNC(=O)CC)nc2ccccc21	0
O=C(CN1CCN(Cc2ccc(F)cc2Cl)C1=O)NCCc1ccccc1	0

For reference, 19 of the compounds above:
SMILES	V. cholerae QS
CC(=O)Nc1ccc(S(=O)(=O)NCc2ccc(C)cc2)cc1	0
CC(=O)Nn1cnc2c(c1=O)C1(CCCCC1)Cc1ccccc1-2	40
CC(=O)Nc1ccccc1C(=O)C(=O)Nc1ccc(F)cc1	0
COc1ccc2[nH]cc(CCNC(C)=O)c2c1	0[10 µg/mL]
O=C(N/N=C/c1ccncc1)c1ccccc1	0
Cc1cc(C(N)=O)c2cc(Br)ccc2n1	0
CC1CCCN(CC(O)COc2ccc(Cl)cc2)C1 (stereo unspecified)	0
Cc1cccc(NCc2ccccc2O)c1C	0
c1csc(Cc2nc3ccccc3[nH]2)c1	0
C#C[C@]1(O)CC[C@H]2[C@@H]3CCC4=CC(=O)CC[C@]4(C)[C@H]3CC[C@@]21C	0[10 µg/mL]
Cn1c(SCc2nc(-c3ccc(Cl)cc3)no2)nnc1-c1ccco1	0
Cc1nnc(NC(=O)C(C)Sc2nncn2C)s1 (stereo unspecified)	0
Cc1c(C(=O)OCC(C)C)[nH]c2c1C(=O)CC(c1ccco1)C2 (stereo unspecified)	0
CCOCc1nc(C)c(Cl)c(NS(=O)(=O)c2ccc(N)cc2)n1	0
Nc1cc(-c2ccc(Br)cc2)nn1S(=O)(=O)c1ccccc1	0
CCNC1(c2cccs2)CCCCC1=O (stereo unspecified)	40[10 µg/mL]
COCc1[nH][nH]c(=O)c1C=Nc1ccccc1	0
CCCCCn1c(CNC(=O)CC)nc2ccccc21	0
O=C(CN1CCN(Cc2ccc(F)cc2Cl)C1=O)NCCc1ccccc1	0

Next section
SMILES	V. cholerae QS
COc1ccc(-c2nc3cnccn3c2Nc2ccc3c(c2)OCO3)cc1	0
O=C(Nc1ccc2c(c1)OCO2)C1CCN(c2ccc(S(=O)(=O)N3CCOCC3)cc2)CC1	0
CN(C)c1ncnc2c1ncn2C1OC(CO)C(O)C1O (stereo unspecified)	0
COC(=O)C1(CCSC)NC(c2ccc(O)cc2)C2C(=O)N(c3ccc4c(c3)OCCO4)C(=O)C21 (stereo unspecified)	40
COc1ccc(NC(=O)C2CCN(C(=O)c3cccs3)CC2)cc1OC	?
C/C(NCc1ccccc1)=C(\C#N)C(=O)NCc1ccccc1	280
O=C(COc1ncnc2ccccc12)N1CCN(C(=O)c2ccco2)CC1	0
O=c1ccc(=O)n2n1CC(O)C2	40
Cn1c(NC(=O)C2CCCC2)cc(=O)n(C)c1=O	0
O=C(O)/C(=C\c1ccco1)NC(=O)c1cccc2ccccc12	0
c1ccc(-c2nc3ccccc3s2)nc1	0
CCCCCn1c(C(Cc2ccccc2)NC(=O)COC)nc2ccccc21 (stereo unspecified)	0
CCC(=O)OC(Cc1ccccc1)(c1ccccc1)C(C)CN(C)C (stereo unspecified)	0[10 µg/mL]
O=C(OCC(=O)N1CCCC1)c1cncc(Br)c1	0
CC(NC(=O)c1ccco1)C(=O)N1CCc2ccccc2C1 (stereo unspecified)	0
CN1CCc2cc3c(cc2[C@H]1[C@@H]1OC(=O)c2c1ccc1c2OCO1)OCO3	80[10 µg/mL]
C=CCOC(Cn1ccnc1)c1ccc(Cl)cc1Cl (stereo unspecified)	0[10 µg/mL]
CCN(Cc1ccccc1)C(=O)c1cc2c(=O)oc3ccc(C)cc3c2s1	0
CCc1ccc(-c2nn(-c3cc(Cl)ccc3[N+](=O)[O-])c(=O)c3ccccc23)cc1	0
Cc1cc(NC(=O)CSc2ccc3nnc(-c4ccccn4)n3n2)no1	0
COc1ccccc1NC(=O)Cn1c(=O)n2nc(C)nc2c2ccccc21	40
COC(=O)C1=C(C(=O)OC)SC2(S1)C(C(=O)OC)=C(C(=O)OC)SC1=C2c2cc(C)ccc2NC1(C)C	0
CC(=O)c1sc(NC(=O)c2ccc(Cn3cc(Br)cn3)o2)nc1C	40
Cc1ccc(C2/C(=C(\O)c3ccc4c(c3)OCCO4)C(=O)C(=O)N2CCCN(C)C)o1 (stereo unspecified)	40
CCCCNc1cc(=O)n(C)c(=O)[nH]1	?

(cont.)
SMILES	V. cholerae QS
O=S(=O)(Nc1ccc(-c2nc3cccnc3s2)cc1)c1cccs1	40
Nc1ccc(S(=O)(=O)Nc2ccccn2)cc1	0[10 µg/mL]
Cn1cc(S(=O)(=O)N2CCN(c3cccc(C(F)(F)F)c3)CC2)c(=O)n(C)c1=O	0
COc1ccc(N2CCN(C(=O)c3ccc4nc(N5CCCCC5)sc4c3)CC2)cc1	0
COc1ccc(C2N3CC4(C)CN2CC(C)(C3)C4O)cc1 (stereo unspecified)	0
COc1ccc(-c2noc(CCC(=O)NCCCN3CCC(C)CC3)n2)cc1	40
Cc1ccc(-n2nc3cc(C)c(N)cc3n2)cc1	0
CCOC(=O)c1cnc(SCC(=O)N2CCc3ccccc32)nc1N	0
CCc1c(C)sc(NC(=O)Cn2nc(C(F)(F)F)c3c2CCCC3)c1C#N	0
CCOc1ccc(N2C(=O)c3ccccc3C2O)cc1 (stereo unspecified)	0
Nc1nnc(CC(c2ccccc2)c2ccccc2)s1	0
CCOc1ccc(N(CC(=O)N2CC=C(c3ccccc3)CC2)S(=O)(=O)c2c(C)noc2C)cc1	0
c1ccc2c(c1)NC1(CCCCC1)n1c-2nc2ccccc21	0
Cc1cc(=O)n(C)c(=O)n1CCCNc1ccccc1	0
CCn1cc(S(=O)(=O)CC(=O)NC2CCCCC2)c2ccccc21	0
O=C(O)CN1C(=O)SC(Nc2ccc(Cl)cc2)C1=O (stereo unspecified)	40
CC(C)c1nccn1S(=O)(=O)c1cc(Cl)ccc1Cl	40
O=C(CN1CCN(c2ccccc2F)CC1)c1ccc2cc[nH]c2c1	40
O=C1N2c3ccccc3CCc3cccc(c32)C1(O)C(F)(F)F (stereo unspecified)	0
C/C=C/Cn1c(N(C)Cc2ccccc2)nc2c1c(=O)[nH]c(=O)n2C	40
Cc1ccc(N2C(=O)C(Cl)=C(NCCO)C2=O)c(C)c1	0
Oc1ccccc1-c1cc(C(F)(F)C(F)F)[nH]n1	0
COc1ccc(N2C(=NC(C)=O)SC3CS(=O)(=O)CC32)cc1OC (stereo unspecified)	40
O=C(O)c1ccc(CN2C(=O)CSC2=S)cc1	0
Cc1ccc(-c2noc(COc3ccccc3C)n2)cc1	40

More structures.
SMILES	V. cholerae QS
CCOC(=O)CSc1nc2c(c(=O)n1-c1ccc(OC)cc1)SCC2	0
CC(=O)Nc1nc2cc3c(cc2s1)OCO3	0
O=C(c1ccco1)N1C2C=CC(C2)C1(C(F)(F)F)C(F)(F)F (stereo unspecified)	0
COc1ccc(Nc2ncccc2C(=O)O)cc1	0
O=C1CC(c2nc3ccccc3[nH]2)CN1c1ccccc1F (stereo unspecified)	40
COc1ccc(-c2nnc(NC(=O)c3cc(Cl)ccc3Cl)o2)cc1	0
CCN(CC)c1ccc(NC(=O)CSc2nnc(N)s2)cc1C	0
CCOc1ccc(Cn2nnc(C(=O)Nc3cc(OC)cc(OC)c3)c2N)cc1	0
CCOC(=O)c1c(C)c(C(=O)NCC2CCCO2)c(C)n1CC (stereo unspecified)	0
NC(=NCCCCCCN=C(N)/N=C(\N)Nc1ccc(Cl)cc1)/N=C(\N)Nc1ccc(Cl)cc1	0[10 µg/mL]
CCCCn1c(CNC(=O)C(C)(C)C)nc2ccccc21	40

Bioassay records (PubChem BioAssay)
